TsaE inh: YjeE (TsaE) inhibition, E. coli | P0AF67 | purified YjeE, fluorescence polarisation of a bound ADP probe | Potency, µM | hit rate 0.05% among 71,000 | AID 605; active = well fitted falling curve; inconclusive = weaker or top-dose-only fall, or a rising curve; inactive = flat or poorly fitted curve;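 note: top concentration of the series not given in the record; excess ADP was the control for the full effect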
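Purified YjeE (10 uM) with BODIPY Texas Red-labeled ADP probe (2 uM); compounds pin-transferred, 15 min at room temperature. Binding inhibition read as decreased fluorescence polarization; ADP titration as control.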
Bst PK mod: alters activity of Bacillus stearothermophilus pyruvate kinase | Potency, µM | hit rate 1.2% among 51,000 | partly purified Bacillus stearothermophilus pyruvate kinase, luminescence ATP production; ribose 5-phosphate activator present at AC10; in the data active means potency below about 11 µM; inconclusive means mostly about 12 µM to 25 µM; inactive means weaker than that;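 the screen sought inhibitors and activators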;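 note: potency is the fitted concentration of half-maximal effect; scaled between full activation by ribose 5 phosphate and full inhibition by luteolin; about four in five hits inhibit and the cells do not say which; series up to 57 µM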
An asterisk follows results filed as active; i = inactive; nt = not tested or not shown. The list is partial; the hit share may differ from the screen's.

SMILES	TsaE inh	Bst PK mod
O=C(NCCc1ccccc1)C1CCN(S(=O)(=O)N2CCC3(CC2)OCCO3)CC1	i	>57
O=c1cc(-c2ccc(O)cc2)oc2cc(O)cc(O)c12	i	nt
Cc1cc(NC(=O)CSc2nc3ccsc3c(=O)n2NC(=O)c2ccccc2)no1	i	>57
CC1CCCCN1S(=O)(=O)c1ccc2c(c1)CCN2C(=O)C1CCC1 (centres undefined)	i	>57
COC(=O)C1C(O)=C(C=NC2CCCCC2)C(=O)CC1(C)C (centres undefined)	i	>57
N#C/C(=C\NC(=S)c1ccncc1)c1nc2ccccc2s1	i	nt
Cc1ccc(SC(C)c2nc(-c3ccncc3)no2)cc1 (centres undefined)	i	>57
COc1ccccc1-c1cncnc1NCc1cccc(C)c1	i	nt
c1ccc2nc(C3=NCCN3)cnc2c1	i	nt
COc1cccc(Cn2c(=O)c(C)nc3cnc(Nc4ccccc4)nc32)c1	i	nt

Pulled by structure from the list above (4):
SMILES	TsaE inh	Bst PK mod
COC(=O)C1C(O)=C(C=NC2CCCCC2)C(=O)CC1(C)C (centres undefined)	i	>57
CC1CCCCN1S(=O)(=O)c1ccc2c(c1)CCN2C(=O)C1CCC1 (centres undefined)	i	>57
Cc1cc(NC(=O)CSc2nc3ccsc3c(=O)n2NC(=O)c2ccccc2)no1	i	>57
O=c1cc(-c2ccc(O)cc2)oc2cc(O)cc(O)c12	i	nt

The list continues.
SMILES	TsaE inh	Bst PK mod
Nn1c(SC/C=C/c2ccccc2)nnc1-c1ccncc1	i	>57
COCc1cc(=O)[nH]c(Nc2nc3ccc(C)cc3o2)n1	nt	>26
COc1nc(Nc2ccc3c(c2)OCO3)nc(OC)n1	i	nt
CC(C)C(=O)Nc1ccc(-c2nc3cccnc3o2)cc1	i	nt
CCN(CC)C(=O)CSc1nnc([C@@H](N)Cc2ccccc2)o1	i	>57
Cc1c(C(=O)O)oc2c1C(O)CCC2 (centres undefined)	i	>57
O=C(Nc1cccnc1)c1ccc2c(c1)C(=O)N(Cc1cccnc1)C2=O	i	>57
CC(C)OC(=O)CCC1(C(=O)O)CCC(=O)NC1 (centres undefined)	i	>57
CC(=O)c1ccccc1NS(=O)(=O)c1c(C)nn(-c2ccccc2)c1C	i	nt
O=C(CCS(=O)(=O)Cc1ccccc1F)NCCCN1CCCCC1	i	>57
O=C(CNCC1CCCO1)Nc1ccc(N2CCCCCC2)cc1 (centres undefined)	i	>57
Cc1cccc(N(C)S(=O)(=O)c2ccc3c(c2)CCC(=O)N3)c1	i	>57
COc1ccc(-n2ncc3c(N4CCC(C(N)=O)CC4)ncnc32)cc1	nt	i
COc1ccccc1N1CCN(c2cc(=O)n(-c3ccccc3Cl)c(=O)[nH]2)CC1	i	>57
COc1ccc(CCN2C(=NC(=O)CCC(=O)O)SC3CS(=O)(=O)CC32)cc1OC (centres undefined)	i	>57
Cc1ccc(NCc2nnc(SCC(=O)c3ccccc3)o2)c(C)c1	i	>57
Cc1ccnc(SCCn2c(N3CC(C)CC(C)C3)nc3c2c(=O)n(C)c(=O)n3C)n1 (centres undefined)	i	>57
COc1ccc(Cc2nnc(NC(=O)c3c(-c4ccccc4)noc3C)s2)cc1	i	nt
CCCCC(c1nnnn1Cc1ccco1)N1CCN(C(=O)c2ccco2)CC1 (centres undefined)	i	>57
CCC(CC)c1nc(NCCC(=O)O)c2ccccc2n1	i	>57
O=C(Nc1ccccc1)Nc1ccccc1	i	nt
CCOc1ccc(OCC(=O)N2CCOCC2)cc1	i	>57
C[C@H](CCC(=O)O)[C@H]1CC[C@H]2[C@@H]3CC[C@@H]4C[C@H](O)CC[C@]4(C)[C@H]3CC[C@]12C	i	nt
CC1CCCCN1CCNC(=O)C1CCN(S(=O)(=O)N2CCCCC2)CC1 (centres undefined)	i	>57
O=C(CCc1ccccc1)n1nc(-c2ccccc2)nc1NCc1ccco1	i	>57
CC(C)(C)C(=O)CSc1nccc(=O)[nH]1	i	>57
CCC(=O)N1CCc2cc(S(=O)(=O)CCC(=O)O)ccc21	i	>57
CCCS(=O)(=O)N1CCC(C(=O)N2CCCC2)CC1	i	>57
Nc1ccc(-c2cc(N)n(-c3ccccc3)n2)cc1	i	>57
Cn1c(CN2CCCCC2)nc2cc(NC(=O)c3ccccc3)ccc21	i	>57

Ordered by formula weight (ascending): three of the compounds above
SMILES	TsaE inh	Bst PK mod
O=C(Nc1ccccc1)Nc1ccccc1	i	nt
Nc1ccc(-c2cc(N)n(-c3ccccc3)n2)cc1	i	>57
O=C(CCc1ccccc1)n1nc(-c2ccccc2)nc1NCc1ccco1	i	>57

Next section:
SMILES	TsaE inh	Bst PK mod
O=C(c1ccc(Cn2cc(Cl)cn2)cc1)N1CCN(c2ccccc2)CC1	i	>57
O=C(NCc1ccco1)Nc1ccc2nsnc2c1	i	nt
CCCC(=O)Nc1ccc(NC(=O)Cc2ccccc2)cn1	i	>57
Cc1noc(C)c1-c1nc(Nc2ccccc2)c2ccccc2n1	i	nt
Fc1cccc(NCc2ccoc2)c1	i	nt
CC(C)[C@@H](CC(=O)N[C@@H]1CCCC[C@H]1C(=O)N[C@H](CC(=O)N[C@@H](CCC(=O)O)CC(=O)O)Cc1c[nH]c2ccccc12)NC(=O)C[C@H](Cc1c[nH]c2ccccc12)NC(=O)[C@@H]1CCCC[C@H]1N	i	nt
CCCCCC[C@@H]([C@@H](C)O)n1cnc2c(N)ncnc21	i	nt
COCCNc1oc(COc2cccc(C)c2)nc1C#N	i	>57
CN1CCc2c(c3ccccc3n2Cc2ccccc2)C1	i	nt
Cc1ccc(-n2nc(C)c(C3C(C#N)=C(N)OC4=C3C(=O)CC(C)(C)C4)c2Cl)cc1 (centres undefined)	i	>57
Cc1cccc(NC(=O)C2CCN(c3nccc(C)n3)CC2)c1	i	>57
N[C@H](C(=O)O)c1ccc(C(=O)O)c(O)c1	i	nt
CC(C)OC(=O)CSc1nnc(-c2ccc(Cl)cc2Cl)n1N	i	>57
COC(=O)c1cc2sccc2n1Cc1ccc(C)cc1	i	>57
CC1(C)CC(=O)C(C=NCCN2CCOCC2)=C(O)C1	i	nt
CC1=CCC(Cc2nc3ccccc3o2)C1(C)C (centres undefined)	i	>57
C=C(C)COc1ccc2c(c1)CCC1C2CC[C@]2(C)C(=O)/C(=N/O)CC12 (some centres undefined)	i	nt
Cc1[nH]c2ccccc2c1C(=O)CN1CCCC1	i	>57
CCOC(=O)CNC(=O)CSc1nc(N)cc(N)n1	i	>57
Cn1c(=O)c2c(nc(N3CCCCC3)n2CCNC2=NCCC2)n(C)c1=O	i	i
Cc1noc(C)c1-c1ccc2ncnc(NC3CCNCC3)c2c1	i	nt
O=C(COc1ccc(Cl)cc1Cl)Nc1ccccn1	i	0.13*
Cc1cc2nc(NC3=NCN(Cc4cccnc4)CN3)nc(C)c2cc1C	i	>57
CCN(CC)CCN1C(=O)C(O)=C(C(=O)c2ccco2)C1c1ccccn1 (centres undefined)	nt	>26
COc1cc2c(cc1OC)CN(C(=O)C1(c3ccccc3)CC1)CC2	i	>57
CCCOc1ccc(N2C(=O)CC(NCCNc3ccc(S(=O)(=O)CC)cc3)C2=O)cc1 (centres undefined)	i	>57
O=C(O)C1C2C=CC(O2)C1C(=O)Nc1ccc(S(=O)(=O)Nc2ccccc2)cc1 (centres undefined)	i	>57
O=C1c2ccccc2NC2CCCCCN12 (centres undefined)	i	>57
S=C(S)NCCCn1ccnc1	i	nt
O=C(CN1CCCCC1)Nc1ccc(F)c(Cl)c1	i	>57

Reprinted from the part before: 5 compounds, then new ones.
SMILES	TsaE inh	Bst PK mod
CCCOc1ccc(N2C(=O)CC(NCCNc3ccc(S(=O)(=O)CC)cc3)C2=O)cc1 (centres undefined)	i	>57
O=C(O)C1C2C=CC(O2)C1C(=O)Nc1ccc(S(=O)(=O)Nc2ccccc2)cc1 (centres undefined)	i	>57
O=C1c2ccccc2NC2CCCCCN12 (centres undefined)	i	>57
S=C(S)NCCCn1ccnc1	i	nt
O=C(CN1CCCCC1)Nc1ccc(F)c(Cl)c1	i	>57
O=C(NCc1cccs1)C1CC(=O)N(c2ccccc2)C1 (centres undefined)	i	>57
CC(=O)Nc1ccc(S(=O)(=O)Nc2cccc(-c3nc4cc(C)ccc4o3)c2)cc1	i	>57
COc1ccccc1NC(=O)c1cccc(S(=O)(=O)N2CCOCC2)c1	i	nt
COc1ccc(CNC(=O)CN(c2cccc(OC)c2)S(C)(=O)=O)cc1	i	>57
COc1ccc(-c2nc(C#N)c(NCCN(C)C)o2)cc1	i	nt
COC(=O)c1ccccc1NC(=O)c1ccc(F)cc1	i	nt
O=C(O)c1ccc(NS(=O)(=O)/C=C/c2ccccc2)cc1	i	i
CCOC(=O)c1[nH]c2ccc(OC)cc2c1NC(=O)C(C)N1CCC2(CC1)OCCO2 (centres undefined)	i	>57
Cc1coc(C)c1C(=O)CC1(O)C(=O)N(Cc2ccccc2)c2ccccc21 (centres undefined)	i	i
CC(C)CCn1nnnc1C(c1ccccc1)N1CCC(C(N)=O)CC1 (centres undefined)	i	>57
Cc1nnc(NC(=O)C(C)Oc2ccc3c(C)cc(=O)oc3c2)s1 (centres undefined)	i	>57
CCOC(=O)c1cc2sccc2n1CCCN1C(=O)c2ccccc2C1=O	i	>57
O=S(=O)(NCc1ccccn1)c1cccc2cccnc12	i	nt
CCOc1ccc(-c2n[nH]c(C)c2-c2ccccc2OC)c(O)c1	i	>57
Cc1nc2c3c(-c4ccccc4)c(-c4ccccc4)oc3ncn2n1	i	>57
O=C(O)c1cc2cc(Cc3cccnc3)ccc2o1	i	nt
COc1ccc(Cc2nc(-c3ccc(NC(=O)c4cccnc4)cc3)no2)cc1	i	>57
CCOC(=O)c1[nH]c2ccc(OCC)cc2c1NC(=O)CN1CCCC(C)C1 (centres undefined)	i	i
CC(C)(C)c1csc(NC(=O)c2cccs2)n1	i	nt
CCOC(=O)/C=C1\CC(=O)Nc2nonc2N1	i	nt
O=C1C2CC=CCC2C(=O)N1c1n[nH]c(Cc2ccccc2)n1 (centres undefined)	i	>57
Cc1cc(NC(=O)CSc2nnc3c(C)cc4cc5c(cc4n23)OCO5)no1	i	>57
CCCn1c(=O)c(C(=O)Nc2c(C)n(C)n(-c3ccccc3)c2=O)c(O)c2ccccc21	i	>57
Cn1nccc1C(=O)OCC(=O)Nc1nc(-c2ccccc2)cs1	i	nt
Cc1coc2cc3oc(=O)c4c(c3cc12)CCC4	i	>57
O=C(NCCCN1CCN(c2ccccc2F)CC1)C1CCCN(S(=O)(=O)c2cnc[nH]2)C1 (centres undefined)	i	nt
CCOc1ccc(-n2c(SCC(=O)Nc3ccc4c(c3)OCCO4)nc3c(c2=O)SCC3)cc1	i	>57
O=C(CSc1nnc(-c2ccc(Cl)s2)o1)N1CCc2ccccc21	i	>57
CC(C)CNS(=O)(=O)c1ccc(CCC(=O)N2CCN(Cc3ccc4c(c3)OCO4)CC2)cc1	i	2.8*
Cc1ccc(-c2nc(C#N)c(N3CCCCC3)o2)cc1	i	nt
CCCCN(C)C(=O)Cn1cnc2sc(C)cc2c1=O	i	>57
O=C(NCC(=O)N(CCc1ccccc1)C(C(=O)NC1CCCC1)c1cccnc1)c1ccco1 (centres undefined)	i	>57
O=C(NCCN1C(=O)C2C3C=CC(C3)C2C1=O)Nc1ccccc1 (centres undefined)	i	nt
O=C1c2ccccc2C(=O)N1CC1c2ccccc2CCN1C(=O)N1CCOCC1 (centres undefined)	nt	>26
COc1ccccc1N1CCN(C(=O)c2sc3nc(-c4ccccc4)cn3c2C)CC1	i	>57
O=C(CCc1ccccc1)Nc1nc2nc(-c3ccccc3)cc(=O)n2[nH]1	i	>57
COCc1cc(C)nc2sc(C(=O)Nc3nccs3)c(N)c12	i	nt
Cc1cccc(CNc2ccnc(-c3ccccc3C(F)(F)F)n2)c1	i	nt
O=C(Nc1ccc(F)cc1F)c1cc2ncc(Br)cn2n1	i	>57
C[C@H](CO)NC(=O)[C@H](C)[C@H]1C[C@]1(C)[C@H](NC(=O)OCc1ccccc1)c1ccccc1	i	nt
COCCCn1c(-c2ccccc2)nc2ccccc2c1=O	i	nt
CC(C)NC(=O)N1CC[C@@]2(CCCN(C(=O)Oc3ccccc3)C2)C1	i	nt
CC(C)C1N=C2c3ccccc3N=C(SCC#N)N2C1=O (centres undefined)	i	>57
O=C1c2ccccc2NC(c2ccc(Cl)cc2Cl)N1O (centres undefined)	i	>57
COC(=O)c1ccc(CSc2nc(N)cc(N)n2)cc1	i	>57
CCS(=O)(=O)NCCCc1ccccc1	i	>57
CCOC(=O)Cc1nnc(NC(=O)CSc2nncn2C)s1	i	nt
Cc1ccc(-n2c(-c3ccncc3)nnc2-c2cccs2)cc1	i	>57
C=C(C)CSc1nc(C)c(Cc2ccccc2)c(=O)[nH]1	i	>57
Cc1cc(C)c2nc(C(F)(F)F)nc(NCCCN3CCCC3=O)c2c1	i	>57

(listing goes on)
SMILES	TsaE inh	Bst PK mod
CCCCn1cnc2cc(NCc3ccncc3)ccc21	i	>57
COc1ccc(NC(=O)C2=C(C)NC(=O)NC2c2cccc(OC)c2OC)c(OC)c1 (centres undefined)	i	nt
Cc1ccc(-c2nnc3sc(C4COc5ccccc5O4)nn23)cc1 (centres undefined)	i	>57
CN(Cc1cccs1)CC(O)COCc1ccco1 (centres undefined)	i	>57
CCC(=O)N1c2ccccc2-c2nnc(SC)nc2OC1c1ccc(OC)c(OC)c1 (centres undefined)	i	nt
CCOC(=O)N1CCN(C(=O)c2ccc(N(C)S(C)(=O)=O)cc2)CC1	i	>57
CC(=O)OC1=C(C#N)Cn2ccc3cccc1c32	i	>57

From PubChem
